# miR-21 reporter: miR-21 reporter, rising signal | AID 2288 | Potency, µM (doses to about 38.3 µM), inactives show at the highest dose reporter change, positive = more light | 340,000 tested, under 10 active | HeLa miR-21 FLuc reporter, luciferase, 48 h; active = well fitted rising curve with a large enough effect; inconclusive = small, poorly fitted or top-dose-only effect; inactive = no such curve, though single readings can be large or run the other way;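 further: % of control where 0% means no effect; miR-21 action dims this reporter so a rising signal means less miR-21 action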
#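 HeLa cells endogenously expressing miR-21, stably carrying CMV-driven firefly luciferase with a downstream miR-21 binding site, 2000 cells/well. Titrations up to approximately 40 uM, 48 hours; luciferase luminescence read.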
# GLA inh pH 4.5: inhibitors of human alpha-galactosidase A at pH 4.5. P06280. purified enzyme, 4-MU-alpha-Gal fluorescence, pH 4.5. activity change, negative = inhibition, % at 105 µM. 230,000 tested, under 10 active. AID 1467; inconclusive = small, poorly fitted or top-dose-only inhibition, or a rising curve; inactive = flat fitted curve, though single readings scatter; no compound was filed as active;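 further: 0% = full activity with enzyme and -100% = basal without enzyme; dose as in the result columns while the protocol names 77 µM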
# Rango complex inh: inhibitors of Rango-importin beta complex formation; Q14974; Rango CFP/YFP FRET sensor + importin beta, 45 min; Potency, µM (top dose mostly 92.2 µM), for inactives: at the top dose inhibition of complex formation; 340,000 compounds, 0.031% hits; AID 540263; active = rising FRET ratio curve, often small or poorly fitted; inconclusive = mostly compound fluorescence or quenching in the first reads; inactive = flat curves in all reads;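 further: potency means the concentration at half of the fitted maximal effect; 0% = DMSO wells and 100% = buffer wells lacking importin beta; nearly all actives have a fitted effect of over 15% in size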
# Target sequence (Q14974 whole entry, looked up): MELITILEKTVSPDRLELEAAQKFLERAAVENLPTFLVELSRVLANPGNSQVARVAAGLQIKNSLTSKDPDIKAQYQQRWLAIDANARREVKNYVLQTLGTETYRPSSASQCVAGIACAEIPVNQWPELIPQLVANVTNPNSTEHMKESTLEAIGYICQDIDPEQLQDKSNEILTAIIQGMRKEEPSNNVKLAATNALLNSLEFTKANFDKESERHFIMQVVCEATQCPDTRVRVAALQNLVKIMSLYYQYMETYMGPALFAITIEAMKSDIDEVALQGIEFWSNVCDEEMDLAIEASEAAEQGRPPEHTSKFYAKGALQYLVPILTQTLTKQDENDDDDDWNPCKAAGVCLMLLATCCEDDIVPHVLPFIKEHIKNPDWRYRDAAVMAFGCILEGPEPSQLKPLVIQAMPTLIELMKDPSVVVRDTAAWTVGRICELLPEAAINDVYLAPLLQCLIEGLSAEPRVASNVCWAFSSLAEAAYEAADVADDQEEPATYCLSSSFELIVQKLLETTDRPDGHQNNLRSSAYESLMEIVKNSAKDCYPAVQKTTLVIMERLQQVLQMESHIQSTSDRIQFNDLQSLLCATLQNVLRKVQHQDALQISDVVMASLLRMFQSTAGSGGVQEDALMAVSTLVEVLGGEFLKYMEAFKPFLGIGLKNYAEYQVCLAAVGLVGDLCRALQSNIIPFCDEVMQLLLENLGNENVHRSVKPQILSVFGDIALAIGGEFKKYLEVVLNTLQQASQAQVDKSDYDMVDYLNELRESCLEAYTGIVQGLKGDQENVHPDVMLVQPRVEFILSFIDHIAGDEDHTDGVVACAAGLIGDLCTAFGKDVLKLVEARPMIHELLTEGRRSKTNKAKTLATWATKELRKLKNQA
#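 FRET biosensor (snurportin 1 IBB flanked by EYFP and cerulean), 50 nM, with compound 5 min, then 0.125 microM importin beta in PBS, 1 mM DTT, 0.02% Tween-20, 0.1% BSA. CFP/YFP ratio read after 45 min at room temperature; pre-read flags interference.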
# Rango release inh: inhibition of RanGTP-driven Rango-importin beta dissociation; 340,000 compounds, 0.071% hits; Potency, µM (series often up to 46.1 µM), without a hit: at the top dose activity change, negative = inhibition; Biochemical FRET Rango-importin beta, RanGTP-induced dissociation; O95149+P62826; active means falling FRET ratio curve, often poorly fitted, with flat reads before Ran was added; inconclusive means other falling curves, or compound fluorescence or quenching; inactive means flat or rising ratio curve;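 further: potency means the concentration at half of the fitted maximal effect; % of control where 0% means no effect; nearly all actives have a fitted effect of over 45% in size; -100% = wells without RanGTP and RCC1; the record marks most hits as doubtful in a second field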
#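 Rango (0.1 uM)–importin beta (0.25 uM) complex; RanGTP-RCC1 trigger; 45 min RT; CFP/YFP FRET read.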
# * marks the source's active call; other numbers are inactive results; ? = inconclusive; . = not tested or not shown; & = joins results of further samples; [ ] = remark or other dose. Not all compounds are listed; rates above refer to the full screens.
SMILES,miR-21 reporter,GLA inh pH 4.5,Rango complex inh,Rango release inh
O=C1CCC(=O)N1c1ccc(NCCc2ccccc2F)c([N+](=O)[O-])c1,0%,-6,5.7%,1%
CCNC(=S)Nc1ccc(Cc2ccncc2)cc1,-4%,3,-1.1%,9%
Cc1ccccc1NN1C(=O)C=CC1=O,-5%,0,9.6%,10%
COc1cc(OC)c(NC(=O)CCCNC(=O)Cn2cnc3sc(C)c(C)c3c2=O)cc1Cl,7%,.,0.9%,-10%
O=C(CCCOc1ccccc1)N1CCCCC1,23%,-3,-1.5%,1%
CC1(C)Oc2ccc3ccc(=O)oc3c2/C(=C/Nc2ccccc2)C1=O,-1%,3,4.2%,-9%
Cc1ccc(C)c(OCCC(=O)Nc2cccc(S(=O)(=O)N3CCCC3)c2)c1,.,.,-3.0%,-11%
Nc1c(C(=O)O)ccc2c1C(=O)c1ccccc1C2=O,1%,-8,-0.4%,10%
CC(C)(C)NC(=S)NC(C)(C)C,-1%,3,0.0%,1%
CC1=Nn2c(nnc2-c2cc(C)[nH]n2)SC1,0%,14,0.4%,-6%
CN(C)S(=O)(=O)c1ccc(C(=O)Nc2nc(-c3cccs3)cs2)cc1,0%,-5,-2.4%,-9%
C=CCNC(=O)C1CC2Cn3c(nc4cc(C)c(C)cc43)C2N1C (centres undefined),-10%,1,-1.1%,2%
COCCOC(=O)C1=C(C)NC(=O)CC1c1cc2c(cc1Br)OCO2 (centres undefined),-3%,3,0.7%,31%
Cc1cc(C)nc(/N=C(\N)Nc2ccc(-c3ccccc3)cc2)n1,20%,-2,?,-5%
CC1=NN(c2ccccc2)C(=O)C1C=Nc1ccc(N(C)C)cc1 (centres undefined),5%,-2,?,?
Cc1cc(C(=O)N2CCN(c3cccc(Cl)c3)CC2)c(C)o1,28%,0,0.0%,22%
COc1ccc(NC(=O)/C(C#N)=C\c2ccc(Br)o2)cc1,-30%,1,-1.5%,8%
COc1cc2c(=O)n(CCC(=O)NCC3CCCO3)c(=O)n(CC(=O)c3ccc(Cl)cc3)c2cc1OC (centres undefined),1%,4[21.1 µM],-0.7%,13%
COc1ccc(-n2c(CCC(=O)O)ccc2-c2ccccc2)cc1,-6%&-3%,2,-3.6%,28%
O=C1c2ccccc2CC1Sc1nnc(-c2ccncc2)o1 (centres undefined),-14%,1,?,5%
CN(Cc1nc2ccccc2c(=O)[nH]1)C(=O)c1ccc(S(=O)(=O)N(C)C)cc1,-8%,2,-2.4%,-2%
CS(=O)(=O)N(CC(=O)NCCc1ccccc1)c1cccc([N+](=O)[O-])c1,-19%,-10,1.8%,3%
Cc1[nH]n(-c2ccccc2)c(=O)c1C1(C(F)(F)F)C(=O)N(c2ccc(F)cc2)C2=C1C(=O)CC(C)(C)C2 (centres undefined),-2%,?,1.3%,-5%
Clc1ccc(-c2nc3nc4ccccc4nc3n2Cc2ccco2)cc1,-56%,-1,-4.0%,-4%
CCCN(C(=O)CSc1nnc(N)s1)c1c(N)n(Cc2ccccc2)c(=O)[nH]c1=O,.,.,?,2%
O=c1[nH]nc(Cc2ccc([N+](=O)[O-])cc2)c2ccccc12,-11%,.,2.9%,3%
CC(C(=O)OCC(=O)c1ccccc1)N1C(=O)c2ccccc2C1=O (centres undefined),0%,3,-0.4%,1%
O=C(CSc1nc(=O)n(CCCN2CCOCC2)c2c1CCCC2)Nc1ccccc1Cl,.,.,5.4%,16%
Cc1ccc(-c2cnc(NC(=O)c3cccc(Br)c3)s2)c(C)c1,-6%,-20,-0.1%,-17%
Cc1ccc(C(=O)NS(=O)(=O)c2ccc(N=NN(C)C)cc2)cc1,1%,-3,-0.7%,1%
Cc1cc(NCc2ccccn2)ccc1Br,-65%,1,3.8%,8%
CCCN1C(=O)c2ccc(C(=O)Nc3ccc4c(c3)OCO4)cc2C1=O,-8%,.,5.8%,-19%
Cn1c(SCc2ccc(C#N)cc2Cl)nc2ccccc21,-75%,2,-4.1%,14%
O=C(CN(c1ccccc1)S(=O)(=O)c1ccccc1[N+](=O)[O-])NN=C1CCCCCCC1,-4%,0,-0.7%,-6%
Cc1ccc(SC2=C(Sc3ccc(C)cc3)C(=O)c3ccccc3C2=O)cc1,-56%,-1,0.5%,-5%
CCOc1cc2c(cc1OCC)C(c1ccc(OC)cc1)N(c1ccccc1)C(=O)C2 (centres undefined),-13%,-3,2.4%,3%
O=C(COc1ccc(/C=N/NC(=O)c2ccccc2O)cc1)Nc1ccccc1,-29%,-2,-3.3%,0%
Cn1c(N)c(C#N)c2c(c1=S)COC(C)(C)C2,-8%,-11,-0.2%,-7%
O=C(COC(=O)c1cccc(Cl)c1)Nc1cc(S(=O)(=O)N2CCOCC2)ccc1N1CCOCC1,.,.,-0.3%,-7%
C#C[C@]1(OC(C)=O)CCC2C3CCC4=CC(=O)CC[C@@H]4C3CC[C@@]21C (some centres undefined),7%,.,?,2%

# Another view of part of the listing above.
Molecule | miR-21 reporter | GLA inh pH 4.5 | Rango complex inh | Rango release inh
O=C(CN(c1ccccc1)S(=O)(=O)c1ccccc1[N+](=O)[O-])NN=C1CCCCCCC1 | -4% | 0 | -0.7% | -6%
Cc1ccc(SC2=C(Sc3ccc(C)cc3)C(=O)c3ccccc3C2=O)cc1 | -56% | -1 | 0.5% | -5%
CCOc1cc2c(cc1OCC)C(c1ccc(OC)cc1)N(c1ccccc1)C(=O)C2 (centres undefined) | -13% | -3 | 2.4% | 3%
O=C(COc1ccc(/C=N/NC(=O)c2ccccc2O)cc1)Nc1ccccc1 | -29% | -2 | -3.3% | 0%

# Continuation.
SMILES,miR-21 reporter,GLA inh pH 4.5,Rango complex inh,Rango release inh
CNC(=S)Nc1ccc(Br)cc1,-3%,-16,8.7%,13%
Cc1occc1C(=O)NNC(=O)COc1ccc(Br)cc1Br,-46%,0,3.6%,-11%
COc1cc(NC(=O)CSCC(=O)N(C)C2CCCCC2)cc(OC)c1,.,.,-1.6%,28%
CC(=O)Nc1ccc(NC(=O)COC(=O)c2ccc(S(=O)(=O)NCc3ccco3)cc2)cc1,.,.,0.2%,-2%
CCn1c(=NC(=O)CSCC(=O)Nc2nccs2)sc2ccccc21,-1%,2,-0.1%,-12%
CC1CCN(CCCCOc2ccc(Br)cc2)CC1,-12%,-11,2.2%,-16%
Nc1nc(COc2ccccc2C=O)nc(Nc2ccccc2)n1,-5%,0,-2.5%,-7%
O=C(Cn1c2c(c(-c3ccccc3Cl)cc1=O)CCC2)NCC1CCCO1 (centres undefined),-4%,3,0.1%,-8%
CCn1c(NCc2cc(OC)c(OC)c(OC)c2)nc2ccccc21,6%,.,-2.6%,1%
COC(=O)C1=C(C(=O)OC)[C@@H]2N(C)c3ccc(OC)cc3[C@@]23C[C@@H](C(=O)OC)N(S(=O)(=O)c2ccc([N+](=O)[O-])cc2)C3=N1,1%,5&-2,-2.4%,-3%
Cc1cccc(C(=O)NC(NC(=S)Nc2ccc(S(N)(=O)=O)cc2)C(Cl)(Cl)Cl)c1 (centres undefined),-9%,2,-2.4%,-13%
Fc1ccc(C2=NN(c3ccccc3)C(c3ccco3)C2)cc1 (centres undefined),-16%,?,?,-19%
CCS(=O)(=O)N1CCN(C(=O)c2cccnc2)CC1,-4%,3,-1.7%,-5%
CC(=O)Nc1ccc(S(=O)(=O)Nn2cnnc2)cc1,6%,-5,0.8%,1%
COc1ccc2c(c1)nc(N)n2Cc1ccccc1,6%,-5,1.5%,8%
Cc1ccc(-c2nnc(N3CCN(C(=O)COc4ccccc4)CC3)c3ccccc23)cc1,29%,0,1.6%,-10%
CCCC(C(=O)c1ccccc1)n1cncn1 (centres undefined),-9%,0,0.6%,1%
CN(CC(=O)Nc1cccc(F)c1)C(=O)c1ccc(COc2ccccc2)o1,.,.,-1.5%,-6%
O=C(O)C1CCC(CNS(=O)(=O)c2ccc(Cl)cc2)CC1 (centres undefined),1%,.,-0.1%,10%
COc1cccc(Nc2nc(N)c([N+](=O)[O-])c(NCc3ccco3)n2)c1,-2%,-17,-1.2%,-14%
CSc1ccccc1NC(=O)CSCc1ccc(C)cc1,6%,1,1.3%,2%
Cc1c(Br)cnn1C(C)C(=O)N1CCN(c2ccc(F)cc2)CC1 (centres undefined),.,.,5.6%,2%
O=C(c1coc(=O)c(Br)c1)N1CCC(C(O)(c2ccccc2)c2ccccc2)CC1,-8%,13,-1.7%,-8%
COc1cccc(C(=O)N/N=c2\oc3c(OC)cccc3cc2C(=O)NCc2ccccc2)c1,-12%,3,-3.8%,?
C=CCN(C(=O)c1csnn1)C(C(=O)NCc1ccccc1)c1cccs1 (centres undefined),-3%,.,-0.1%,4%
O=C(NCc1ccco1)c1ccc(Cn2c(=O)c3ccccc3n(Cc3ccc(Cl)cc3)c2=O)cc1,-15%,-3,1.2%,8%
Cc1ccc(C(=O)N2CCCCCC2)cc1Br,-13%,6,-0.4%,0%
CC(C)(C)OC(=O)NCCc1n[nH]c(=S)o1,1%,-2,-0.3%,12%
Cc1ccc(N(CC(=O)Nc2cccc(N(C)S(C)(=O)=O)c2)S(C)(=O)=O)cc1,11%,5,-4.6%,1%
Cc1ccc(C(C(=O)NC(C)(C)C)N(C(=O)c2csnn2)C2CC2)cc1 (centres undefined),-4%,1,-9.4%,-1%
CN(C)S(=O)(=O)N1CCN(c2ccccc2)CC1,-1%,-1,-0.7%,-16%
O=C(O)COCC(=O)Nc1ccc(Oc2ncnc3cc(Cl)ccc23)nc1,-6%,-7,-1.0%,-11%
O=c1c2ccccc2c(/C=N/n2cnnc2)c(O)n1-c1ccccc1F,2%,9,?,?
COc1ccc(-c2nc(NC(=O)CCNC(=O)c3ccco3)sc2C)cc1,13%,2,-2.6%,-10%
Cc1ccc(S(=O)(=O)c2c(C)nn(C(C)(C)C)c2OC(=O)C2CCCC2)cc1,?,-5,3.0%,36%
CC1CC(C)CN(CCOc2ccc(Cl)cc2Cl)C1 (centres undefined),1%,-11,-2.4%,0%
CN(C(=O)c1ccco1)c1nnc(-c2ccc(F)cc2)s1,-39%,.,-0.4%,-19%
COc1ccc(-c2ccc3c(c2)S(=O)(=O)c2cccc(C(=O)NCCOc4ccccc4)c2C3=O)cc1OC,.,.,-0.1%,1%
COc1nc(Oc2ccc(=O)[nH]n2)nc(N2CCOCC2)n1,-10%,0,1.8%,1%
CCC(=O)NC(=S)Nc1ccc(Cl)cn1,-26%,6,-3.4%,5%

# Compound profiles (already shown). Order of screens: miR-21 reporter	GLA inh pH 4.5	Rango complex inh	Rango release inh
# Cc1ccc(C(C(=O)NC(C)(C)C)N(C(=O)c2csnn2)C2CC2)cc1 (centres undefined) as listed: -4%	1	-9.4%	-1%
# COc1nc(Oc2ccc(=O)[nH]n2)nc(N2CCOCC2)n1 as listed: -10%	0	1.8%	1%
# COc1cccc(C(=O)N/N=c2\oc3c(OC)cccc3cc2C(=O)NCc2ccccc2)c1 as listed: -12%	3	-3.8%	?
# CC1CC(C)CN(CCOc2ccc(Cl)cc2Cl)C1 (centres undefined) as listed: 1%	-11	-2.4%	0%
# O=C(c1coc(=O)c(Br)c1)N1CCC(C(O)(c2ccccc2)c2ccccc2)CC1 as listed: -8%	13	-1.7%	-8%

# Remaining list, next part:
SMILES,miR-21 reporter,GLA inh pH 4.5,Rango complex inh,Rango release inh
Cc1ccccc1-n1c(=O)cc(N2CCN(Cc3ccccc3)CC2)[nH]c1=O,5%,-1,-4.7%,-2%
N#Cc1cccc(NC(=O)CCNS(=O)(=O)c2ccc3[nH]c(=O)oc3c2)c1,1%,.,-4.0%,19%
COc1ccc(-n2nnnc2SCC#CCO)cc1,14%,3,1.2%,3%
CCOC(=O)C1CCCN(c2c(NCC3CCCO3)c(=O)c2=O)C1 (centres undefined),1%,-2,-0.2%,2%

# Sorted by length of the SMILES (ascending): some entries from above
SMILES,miR-21 reporter,GLA inh pH 4.5,Rango complex inh,Rango release inh
CCOC(=O)C1CCCN(c2c(NCC3CCCO3)c(=O)c2=O)C1 (centres undefined),1%,-2,-0.2%,2%
Cc1ccccc1-n1c(=O)cc(N2CCN(Cc3ccccc3)CC2)[nH]c1=O,5%,-1,-4.7%,-2%
N#Cc1cccc(NC(=O)CCNS(=O)(=O)c2ccc3[nH]c(=O)oc3c2)c1,1%,.,-4.0%,19%

# Source: PubChem BioAssay
